Bioassay records deposited in PubChem BioAssay by National Center for Advancing Translational Sciences (NCATS).
PINK1 modulator = modulators of PINK1 expression; PINK1 immunofluorescence, high-content cytometry, 24 h; Potency, µM (series often up to 76.6 µM), for the others: top-dose activation (PINK1 increase), usual class: activators; 0.2% of 410,000 active; AID 624263; active = well fitted activation curve with a large enough effect; inconclusive = small, poorly fitted or top-dose-only effect; inactive = flat fitted curve, though single readings scatter; cell line not stated here;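 also: potency is read from the fitted curve at half-maximal effect; % of control where 0% means no effect; nearly all actives have a fitted effect of over 65% in size; a mitochondrial uncoupler was the plate control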
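Compound titrations (5 concentrations, 24 h) on a stable cell line; DMSO and CCCP controls. Endpoint: fixed-cell PINK1 immunofluorescence with mitochondrial, cell and nuclear markers, scanned by microplate cytometer.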
D2 ag = human D2 receptor agonism in beta-arrestin assay; activation, % (no concentration beside the values); 0.084% of 360,000 active; DiscoveRx PathHunter D2 beta-arrestin, luminescence, 90 min; 100% = 57 uM dopamine signal; AID 624465; in the data active = activation above about 40%; inconclusive = about 15% to 40%; inactive = below about 15%; also: compound concentration not given in the record; the text of the record calls up to 30% inactive
Target sequence (P14416 whole entry, looked up): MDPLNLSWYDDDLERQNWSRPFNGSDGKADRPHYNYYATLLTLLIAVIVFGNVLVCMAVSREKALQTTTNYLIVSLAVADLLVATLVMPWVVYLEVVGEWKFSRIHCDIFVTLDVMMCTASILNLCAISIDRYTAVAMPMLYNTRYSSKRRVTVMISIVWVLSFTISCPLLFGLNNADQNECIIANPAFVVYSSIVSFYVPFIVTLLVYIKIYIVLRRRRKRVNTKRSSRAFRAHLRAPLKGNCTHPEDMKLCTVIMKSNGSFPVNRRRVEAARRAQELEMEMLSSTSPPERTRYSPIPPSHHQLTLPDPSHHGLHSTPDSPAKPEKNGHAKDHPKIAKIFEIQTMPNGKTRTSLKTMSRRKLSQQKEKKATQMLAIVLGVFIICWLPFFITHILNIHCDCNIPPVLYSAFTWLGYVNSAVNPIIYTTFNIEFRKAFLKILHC
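DiscoveRx PathHunter D2 beta-arrestin cells (2,100/well) attached overnight, then compound-stimulated 90 min at 37 C in HBSS/10 mM HEPES/0.1% Tween-20 buffer; beta-galactosidase complementation read by luminescence after 1 h at ambient temperature. Dopamine 57 uM final (EC100) as control.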
CtBP-E1A inh = CtBP/E1A binding inhibition; AlphaScreen GST-E1A/His-CtBP binding, 1536-well; active compounds read low; control for the full effect not named in the record; activity change, % (test concentration not listed); 0.49% of 340,000 active; in the data active means activity change below about -65%; inconclusive means about -30% to -65%; inactive means above about -30%; also: % is scaled to controls: 0 for no effect and ±100 for the full control effect
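Homogeneous bead-based format: GST-tagged E1A captured on glutathione donor beads, His-tagged CtBP on nickel acceptor beads; compounds precede bead addition by 2 h at 37 °C.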
Six1-Eya2 inh = blocks human Six1 binding to Eya2; AlphaScreen GST-Six1/His-Eya2 binding, biochemical; active compounds read low; control for the full effect not named in the record; activity change, % (no concentration beside the values); 0.56% of 360,000 active; AID 651725; in the data active = activity change below about -65%; inconclusive = about -30% to -65%; inactive = above about -30%; also: % is scaled to controls: 0 for no effect and ±100 for the full control effect
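Homogeneous AlphaScreen proximity assay pairing GST-Six1 with His-tagged Eya2 (added as 5X mix: 250 nM and 500 nM) in 50 mM Tris pH 8.0, 300 mM NaCl, 1 mM TCEP. Glutathione donor and nickel acceptor beads; 1 h, 37 °C, dark.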
TRPML1 agonist = agonists of human TRPML1 channel | Q9GZU1 | TRPML1-expressing cells, Ca2+ dye fluorescence, FDSS; host cell line not named in the record; reference of the full effect not given here | activation, % (concentration not given with the values) | 0.12% of 410,000 active | AID 624414; in the data active = activation above about 50%; inconclusive = about 30% to 50%; inactive = below about 30%; also: 0% is about no effect; the text of the record puts the active cut at 80%
Target sequence (Q9GZU1 whole entry, looked up): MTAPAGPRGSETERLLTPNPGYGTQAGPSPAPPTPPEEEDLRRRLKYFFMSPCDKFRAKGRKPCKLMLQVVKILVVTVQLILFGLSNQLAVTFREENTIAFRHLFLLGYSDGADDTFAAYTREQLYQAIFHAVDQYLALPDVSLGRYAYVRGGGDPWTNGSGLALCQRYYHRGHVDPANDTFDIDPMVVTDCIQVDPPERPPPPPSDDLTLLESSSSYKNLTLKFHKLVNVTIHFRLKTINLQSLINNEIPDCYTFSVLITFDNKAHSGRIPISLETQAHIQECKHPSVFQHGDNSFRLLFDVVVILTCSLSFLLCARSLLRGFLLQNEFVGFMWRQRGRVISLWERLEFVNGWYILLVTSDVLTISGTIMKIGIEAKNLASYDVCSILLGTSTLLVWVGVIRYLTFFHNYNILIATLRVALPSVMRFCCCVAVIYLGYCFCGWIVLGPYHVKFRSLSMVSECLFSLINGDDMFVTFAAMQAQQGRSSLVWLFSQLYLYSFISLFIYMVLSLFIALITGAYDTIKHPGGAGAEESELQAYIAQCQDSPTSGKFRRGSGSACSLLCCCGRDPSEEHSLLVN
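Agonist activity was taken from a 110 s kinetic Ca2+ dye read on the FDSS after pinning compounds onto TRPML1-DL cells. The cells were seeded at 1,500/well with Tet inducer, incubated about 16 h, then dye-loaded at room temperature.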
TRPML1 inh = inhibitors of human TRPML1 channel | Q9GZU1 | AID 624415 | 0.02% of 390,000 active | activity change, negative = inhibition, % (concentration not given with the values) | TRPML1-inducible cells, Ca2+ dye fluorescence, FDSS; active compounds read low; inhibition of EC80 agonist-evoked calcium signal; in the data active means activity change below about -50%; inconclusive means about -30% to -50%; inactive means above about -30%;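 also: stimulus is agonist 54-4 at its EC80 concentration; % is scaled to controls: 0 for no effect and ±100 for the full control effect; the text of the record puts the active cut at -80%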
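TRPML1-DL cells, Tet-induced overnight (~16 h, 37 °C) at 1,500 cells/well, were loaded with Ca8 no-wash dye plus quencher for 45-90 min at room temperature. Compounds were pinned during FDSS kinetic reading; agonist 54-4 at EC80 (4 uM final) then added.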
Starred values were filed as active, the others as inactive; u = inconclusive; x = no result given; & = joins results of further samples; [ ] = dose if it differs, or a comment.

SMILES	PINK1 modulator	D2 ag	CtBP-E1A inh	Six1-Eya2 inh	TRPML1 agonist	TRPML1 inh
CCOC(=O)C(NC(=O)CC)(Nc1sc2c(c1C(=O)OC)CCN(C)C2)C(F)(F)F (stereo not drawn)	2.1%	-3.6	1	5	0.2	-23
CN(c1ccc(OCC(=O)NCc2cccnc2)cc1)S(=O)(=O)c1ccc(Cl)cc1	1.0%	2.5	0	-4	0.9	-5
O=C(NC1CC1)C1CCN(C2CCN(C(=O)/C=C/c3cccs3)CC2)CC1	2.1%	0.1	3	0	-0.9	9
Cc1ccc(N2CN(Cc3cccnc3)CNC2=S)cc1	0.9%	0.6	-19	15	0.5	0
O=C(NCCN1CCOCC1)c1cc(-c2ccc(Br)cc2)on1	8.3%[38.3 µM]	1.8	18	3	-0.7	-1
COc1ccc(C2C3=C(CC(C)(C)CC3=O)Nc3c2c(=O)[nH]c(=O)n3Cc2ccccc2)cc1 (stereo not drawn)	5.3%	-0.8	0	-6	1.4	-16
O=C(c1ccc(F)cc1)N1CCN(C2CCC(c3ccccc3)CC2)CC1 (stereo not drawn)	-0.1%	-1.7	x	2	0.2	3
O=C(CSc1ccccc1)NN1C(=O)c2ccccc2C1=O	1.5%	-4.5	0	-15	-1.3	39
CCC(=O)N1CCc2cc(S(=O)(=O)N(C)c3ccc(OC)cc3OC)ccc21	-2.3%	0.6	4	6	1.6	-11
C/C(=N/O)c1no[n+]([O-])c1/C(C)=N\O	1.0%	-4.8	13	-14	-0.5	-19
CSc1nc2nc(-c3ccc(F)cc3)c(CCN3CCN(C)CC3)cn2n1	1.2%	0.4	-4	5	-0.2	-2
O=C(N/N=C/c1ccc(COc2ccc(Br)cc2)o1)c1ccc2c(c1)OCO2	7.1%	0.0	-16	-10	0.9	-18
O=C(NCCN1CCOCC1)c1ccc2ccccc2c1	-1.0%	-1.9	6	21	1.0	-9
Cc1cc(=O)n2nc(N3CCC(C(=O)Nc4ccc(Br)c(C)c4)CC3)sc2n1	0.8%	x	x	x	-0.7	4
COc1cc(C(=O)N2CCC(C(=O)Nc3cccc(C(C)=O)c3)CC2)cc(OC)c1OC	0.2%	-2.6	0	20	-0.1	-5
COc1cccc(CNC(=O)C2CCCN(c3nnc(-n4c(C)ccc4C)s3)C2)c1OC (stereo not drawn)	0.5%	x	x	x	-1.1	-2
Cc1ccc(Nc2nnc(SCC(=O)NC(Cc3c[nH]c4ccccc34)C(=O)O)s2)cc1 (stereo not drawn)	-0.2%	-1.7	x	u	2.1	-5
CN(C)c1cccc(C(=O)NNC(=O)NC2CCCCC2)c1	0.3%	-4.2	1	1	-0.5	-13
Cc1cc(C)c(N(CC(=O)NCc2ccccc2)C(=O)c2csnn2)c(C)c1	1.1%	-1.4	1	-5	1.0	-4
N#CC1C(=O)NC(=O)C(C#N)C12CCCC2 (stereo not drawn)	0.5%	-0.8	7	-3	-0.4	x
Cn1c(SCC(=O)NC(C)(C)C)nnc1-c1cnccn1	-1.4%	-3.5	0	4	-0.5	-2
O=C(NCCCn1ccnc1)NC(C(F)(F)F)C(F)(F)F	-0.8%	-1.5	-13	4	1.0	2
Cc1ccccc1NC(=O)CSc1n[nH]c(-c2ccco2)n1	1.8%	-1.1	8	2	-0.6	-4
CCSC(=Nc1ccccc1)N1CCOCC1	-0.8%	-1.6	2	3	0.5	-1
CCC1CCC2(CC1)NC(=O)N(CC(=O)Nc1cc(C)on1)C2=O (stereo not drawn)	1.6%	-8.0	10	4	-1.6	-16
CS(=O)(=O)N(CC(=O)Nc1ccc(F)cc1F)c1cccc([N+](=O)[O-])c1	-0.4%	-4.5	10	-2	-0.8	-1
CC[C@H](C)[C@H](NC(=O)OCc1ccccc1)C(=O)OCC(=O)Nc1ccc(N2CCOCC2)cc1	-0.1%	-3.0	-1	-16	-0.6	21
CC(C)n1c(SCC(=O)Nc2nc3ccccc3s2)nc2c1c(=O)n(C)c(=O)n2C	1.8%	-2.9	-7	-5	0.8	8
Cc1ccc(N2C(=O)c3ccccc3C2Nc2ccc(S(=O)(=O)N3CCOCC3)cc2)nc1 (stereo not drawn)	-1.2%	-4.2	2	1	0.2	6
CCOC(=O)CC(=O)Nc1ccsc1C(N)=O	0.9%	-5.6	0	0	0.4	17
CCn1c(SCC(=O)N2CCOCC2)nc2ccccc21	-0.5%	-0.6	7	5	-0.3	-11
O=C(CCC1CCN(C(=O)c2ccccc2Cl)CC1)NCc1ccc(F)cc1	-0.1%	4.7	3	-1	0.0	18
CCC1CN(C(=O)N2CCC(C(=O)NCc3cc(OC)c(OC)c(OC)c3)CC2)c2ccccc2O1 (stereo not drawn)	2.9%&4.6%	-1.4	5	0	-1.1&2.9	0&-11
Cc1cc(=O)c(C(=O)O)nn1-c1cccc(C(F)(F)F)c1	-2.6%	-1.1	7	2	-1.1	8
CCc1ccc(NC(=O)CSc2nc(=O)n(CCN(C)C)c3c2CCCC3)cc1	0.1%	-7.5	-3	-8	-0.7	12
CC(C)Cn1cc(NC(=O)NCc2cccc(Cl)c2)c2ccccc2c1=O	-3.0%	x	x	x	1.8	60
COc1ccc(NC(=O)C2CCN(C(=O)N3CCOc4ccccc43)CC2)cc1	-0.4%	x	x	x	-1.1	3
CCOc1cc(C2c3c(oc4ccccc4c3=O)C(=O)N2c2ccccn2)ccc1O (stereo not drawn)	1.2%	x	x	x	2.8	-8
CCCCC(=O)N1C/C=C\C(c2ccc(OC)cc2)N(Cc2ccc(F)cc2)C(=O)C1 (stereo not drawn)	1.5%	-2.6	-16	-1	-0.6	10
O=C(NC(=C(Cl)Cl)S(=O)(=O)c1ccc(Cl)cc1)c1ccccc1	13%	-12	-8	-13	x	x

Ordered by molar mass (ascending): 4 of the compounds above
SMILES	PINK1 modulator	D2 ag	CtBP-E1A inh	Six1-Eya2 inh	TRPML1 agonist	TRPML1 inh
CCC(=O)N1CCc2cc(S(=O)(=O)N(C)c3ccc(OC)cc3OC)ccc21	-2.3%	0.6	4	6	1.6	-11
COc1cc(C(=O)N2CCC(C(=O)Nc3cccc(C(C)=O)c3)CC2)cc(OC)c1OC	0.2%	-2.6	0	20	-0.1	-5
O=C(N/N=C/c1ccc(COc2ccc(Br)cc2)o1)c1ccc2c(c1)OCO2	7.1%	0.0	-16	-10	0.9	-18
CCC1CN(C(=O)N2CCC(C(=O)NCc3cc(OC)c(OC)c(OC)c3)CC2)c2ccccc2O1 (stereo not drawn)	2.9%&4.6%	-1.4	5	0	-1.1&2.9	0&-11

(more compounds)
SMILES	PINK1 modulator	D2 ag	CtBP-E1A inh	Six1-Eya2 inh	TRPML1 agonist	TRPML1 inh
N#CCCn1cc(/C=N/O)c(-c2ccccc2)n1	-2.1%[38.3 µM]	1.9	-9	-3	0.4	1
O=C(CSc1nnnn1C1CCCC1)NCCc1ccccc1	0.6%	-0.8	9	0	0.0	-9
CCOc1ccc(NC(=O)CN(C)CC(=O)Nc2cccc(Cl)c2C)cc1OCC	-0.9%	-0.6	-3	-4	-0.1	42
CCc1ccc2[nH]c(C)c(CN3CCCCCC3)c(=O)c2c1	0.4%	-8.2	x	11	1.6	5
COc1cc2c(cc1OC)C(COc1ccc3c(C)cc(=O)oc3c1)N(C(=O)c1cccc(C)c1)CC2 (stereo not drawn)	-0.2%	x	x	x	0.4	22
COc1ccc2[nH]c(=O)c(CN(C(=O)c3cccc(Cl)c3)c3ccccc3C)cc2c1	-0.7%	x	x	x	-0.2	14
COc1ccc2c(c1)[C@H]1[C@H](CO2)[C@H](c2ccccc2)[C@]2(C)C(=O)N(Cc3ccc(C)cc3)CC(=O)N12	-0.4%	-3.5	-10	-12	3.3	35
CC(=O)c1ccc(NC(=O)c2ccc3c(c2)N(Cc2cccc(Cl)c2)C(=O)c2ccccc2S3=O)cc1 (stereo not drawn)	1.4%	x	x	x	0.3	4
CC(C)c1nc2ccc(C(=O)NCCCN3CCN(c4ccc(F)cc4)CC3)cc2o1	1.5%	x	x	x	2.3	-5
CCCCN(C(=O)C1=COCCO1)c1c(N)n(CCCC)c(=O)[nH]c1=O	u	-2.2	-1	13	0.4	u
NC(CCc1ccccc1)c1csc(NC(=O)Nc2cccc(Cl)c2)n1 (stereo not drawn)	-1.4%	10	-9	-8	4.5	x
O=C(CN1CCC(C(=O)c2cccc(F)c2)CC1)NCc1cccs1	-1.6%	-6.1	x	8	0.4	2
CC[C@]1(c2cccc(C)c2)C(=O)N(C(=O)OC)N1C(=O)OC	8.1%	-2.5	5	4	-0.3	16
CCc1ccc(CNC(=O)c2ccc3c(c2)nc2n3CCCCC2)cc1	0.9%	x	x	x	0.6	1
Cc1ccccc1C(=O)N1CCN(c2ccc(NC(=O)c3ccco3)cc2Cl)CC1	-2.1%	-2.6	4	-7	-1.0	-10
COc1ccc2c(c1)CC(NC(=O)Nc1c(C)cc(C)cc1C)CO2 (stereo not drawn)	1.6%	x	x	x	-0.3	-4
Cc1cc(C)c2c(=O)n(CC(=O)Nc3ccc(Br)c(C)c3)sc2n1	3.3%	-4.3	-7	-10	7.4	2
CN(C)c1ccc(CNCCC(Cc2ccccc2)c2ccco2)cc1 (stereo not drawn)	-1.8%	-7.8	u	-66*	-0.6	8
O=C(/C=C/c1ccc(F)cc1)NC(=S)N1CCCCC1c1cccnc1 (stereo not drawn)	0.9%	-4.7	-5	-1	0.9	19
COc1ccc(-c2nc(CN(CC3CCC(=O)N3)C(C)C)c(C)o2)c(C)c1C (stereo not drawn)	-1.7%	-21	-4	-5	-0.9	4
COc1ccc(NC(=O)c2nn(C)c3c2CS(=O)(=O)c2ccccc2-3)cc1	3.5%	0.0	0	3	-0.4	-12
CCCCN(C(=O)C1=NN(c2cc(C)ccc2C)C(=O)CC1)c1c(N)n(CCC)c(=O)[nH]c1=O	5.9%	-2.2	5	1	-0.1	5
O=c1c2c(-c3ccc([N+](=O)[O-])cc3)csc2nc2n1CCCCC2	1.0%	-2.1	-11	1	3.2	-4
Fc1ccc(Nc2nc(SCc3cccc(Cl)c3)nc3ccccc23)cc1	u	x	x	x	1.3	15
Cc1ccc2nc(N3CCN(C(=O)c4ccco4)CC3)c3nncn3c2c1	1.6%	-7.1	5	0	-0.8	21
O=C(Nc1ncc(Cc2cccc(Cl)c2)s1)C1=NCCN1	x	0.6	10	-2	0.4	7
O=c1[nH]c2cc(Cl)cc([N+](=O)[O-])c2c2ccc(Cl)cc12	-0.2%	-6.6	-2	5	0.2	33
CCOC(=O)c1c(-c2ccccc2)oc2ccc(N(C(C)=O)S(=O)(=O)c3cc(C)ccc3C)cc12	0.8%	x	x	x	3.2	27
O=C(NCC1CC1)Nc1cccc(C(F)(F)F)c1	5.2%	-4.3	-2	4	-0.1	-1
CC(C)(C)N(Cc1ccccc1)C(=O)CN1C(=O)c2ccccc2S1(=O)=O	-0.8%	0.8	7	0	0.4	7
CCOC(=O)N1CCN(C(=O)c2c[nH]c3ccc(S(=O)(=O)N(C)c4ccc(F)cc4)cc3c2=O)CC1	-0.8%	-0.7	-7	-9	0.0	11
